Assay outcomes from PubChem BioAssay.
GIV-Gai inh – inhibitors of GIV GBA-motif binding to rat Galpha-i3; P08753; Galpha-i3/FITC-GIV peptide fluorescence polarization, 90 min; hits give low values; scaled: aluminum fluoride 0%, vehicle 100%; percent of control (FP), % (test concentration not listed); actives 0.42% (n = 210,000); AID 1224905;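 active = replicate mean at 85% of control or lower, very high polarization wells dropped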;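 also: wells of about 15 µL received 100 nL stock; the first replicate is given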
Target sequence (P08753 whole entry, looked up): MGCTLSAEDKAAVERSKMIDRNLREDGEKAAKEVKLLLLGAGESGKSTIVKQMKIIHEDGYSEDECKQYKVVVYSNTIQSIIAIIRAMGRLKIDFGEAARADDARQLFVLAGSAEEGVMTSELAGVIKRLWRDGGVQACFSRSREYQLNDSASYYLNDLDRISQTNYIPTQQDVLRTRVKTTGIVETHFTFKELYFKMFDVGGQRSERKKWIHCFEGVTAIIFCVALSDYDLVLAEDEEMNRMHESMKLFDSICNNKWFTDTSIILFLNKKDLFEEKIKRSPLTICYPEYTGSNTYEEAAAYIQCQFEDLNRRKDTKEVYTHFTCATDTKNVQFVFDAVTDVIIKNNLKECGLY
HCMV NEC inh – disrupts HCMV UL50-UL53 complex binding. inhibition, % (no concentration beside the values). HTRF UL50-UL53 interaction, normalized percent inhibition. actives 0.15% (n = 190,000);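 active = both replicates at 50% or more, plus weaker picks with an unusually low signal ratio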;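 also: stock transfer was 100 nL into about 20 µL; 0% = negative control wells and 100% = wells with untagged competitor protein; inactives centre near -12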
Sa growth inh – inhibitors of Staphylococcus aureus growth at 42 °C; S. aureus RN4220 growth, OD600, 20 h; hits give low values; relative growth, % (no concentration beside the values); actives 0.53% (n = 170,000); AID 720641;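 active = growth at 42 °C up to 50% and 20 or more points under that at 30 °C, or under 10% at both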;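 also: 300 nL library stock went into each well; scaled to the means of positive and negative controls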
Sa growth inh second temp – further read-out of Sa growth inh, marked with its call; relative growth, %; measured here: growth at 30 °C;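 optical density after 20 h as mean of two plates; 100% = untreated growth and lower means inhibition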
* hit, by the source's call; x = not tested or not shown; & = joins results of further samples.

SMILES | GIV-Gai inh | HCMV NEC inh | Sa growth inh | Sa growth inh second temp
CCn1c2ccccc2c2cc(/C=C3\CCC(C4CCCC4)C3=O)ccc21 (stereo not given) | 106 | x | 112 | 83
Cc1ccc(-n2nc(CN3CCOCC3)c(-c3ccccc3)c2N)c(C)c1 | 102 | -29 | 88 | 76
COc1ccc(OC)c(/C=N/NC(=O)Cc2nc3ccccc3[nH]2)c1 | 102 | -94 | 103 | 83
O=S(=O)(c1ccccc1)n1nc(-c2cccnc2)nc1NCc1ccccc1 | 108 | 26 | x | x
Cc1ccc(Cl)cc1N1CCN(S(=O)(=O)c2ccc3[nH]c4c(c3c2)CCCCC4)CC1 | 106 | x | 75 | 99
CN(CCOC(=O)c1cc(Cl)cc(Cl)c1)c1ccc(C#N)cn1 | 98 | 0 | 98 | 100
O=C(Cn1cccc1C(=O)c1ccccc1)NCc1ccccc1Cl | 102 | -31 | 95 | 83
CCN1CCN(C(=O)CN2C(=O)CCCc3ccccc32)CC1 | 108 | -15 | x | x
O=C1CCC(C(=O)NNc2c(F)c(F)cc(F)c2F)=NN1 | x | 5 | 91 | 80
CC(=O)N1CCC(N(C(=O)Nc2ccc(C)c(F)c2)C(C)C)CC1 | 102 | -15 | 100 | 111
Cc1ccc(Nc2ccc3cc(S(=O)(=O)N4CCC(C)CC4)ccc3n2)c(Cl)c1 | 110 | x | 100 | 87
O=C(NCc1ccccc1)c1noc2c1CCc1ccccc1-2 | 101 | x | 106 | 93
CCN1C(=O)/C(=C(/C#N)C(=O)C(C)(C)C)c2ccccc21 | x | 5 | 98 | 94
CN(Cc1ccccc1)C(=O)COc1ccc(-n2ccnc2)cc1 | x | -24 | 75 | 88
COc1ccc(OC)c(C2CCN(c3ccc(-c4nc(-c5ccc(F)cc5)no4)nn3)C2)c1 (stereo not given) | 99 | -35 | x | x
CC1CCC2(CC1)NC(=O)N(NC(=O)COC(=O)CCc1ccccc1)C2=O (stereo not given) | x | -7 | 98 | 93
CC(=O)Nc1ccc(S(=O)(=O)Nc2ccc3c(c2)N(C(=O)c2ccccc2)CCC3)cc1 | 108 | -2 | x | x
O=C(O)c1ccccc1N(Cc1ccccc1)C(=O)COc1ccccc1 | x | 6 | 100 | 95
O=c1c2ccccc2n2c(=O)[nH]nc2n1Cc1ccc(F)cc1 | 97 | x | 119 | 89
O=C(O)c1cncc(Br)c1 | 98 | 2 | 98 | 114
CC1CCc2sc(NC(=O)C3CC3)c(C#N)c2C1 (stereo not given) | 103 | -24 | 84 | 84
O=C(Nc1ccccc1C(=O)OCc1cc(=O)n2ccsc2n1)c1cccc(F)c1 | 101 | x | 90 | 99
c1ccc(-c2cnc(-c3cccs3)o2)cc1 | x | -21 | 77 | 59
COC(=O)/C(=C/c1c[nH]c2ccccc12)NC(C)=O | 104 | x | 106 | 93
CSC(=Nc1ccc(C)c(C)c1)NC#N | x | 0 | 96 | 79

Shown tab-delimited: part of the list above
SMILES	GIV-Gai inh	HCMV NEC inh	Sa growth inh	Sa growth inh second temp
CCn1c2ccccc2c2cc(/C=C3\CCC(C4CCCC4)C3=O)ccc21 (stereo not given)	106	x	112	83
Cc1ccc(-n2nc(CN3CCOCC3)c(-c3ccccc3)c2N)c(C)c1	102	-29	88	76
COc1ccc(OC)c(/C=N/NC(=O)Cc2nc3ccccc3[nH]2)c1	102	-94	103	83
O=S(=O)(c1ccccc1)n1nc(-c2cccnc2)nc1NCc1ccccc1	108	26	x	x
Cc1ccc(Cl)cc1N1CCN(S(=O)(=O)c2ccc3[nH]c4c(c3c2)CCCCC4)CC1	106	x	75	99
CN(CCOC(=O)c1cc(Cl)cc(Cl)c1)c1ccc(C#N)cn1	98	0	98	100
O=C(Cn1cccc1C(=O)c1ccccc1)NCc1ccccc1Cl	102	-31	95	83
CCN1CCN(C(=O)CN2C(=O)CCCc3ccccc32)CC1	108	-15	x	x
O=C1CCC(C(=O)NNc2c(F)c(F)cc(F)c2F)=NN1	x	5	91	80
CC(=O)N1CCC(N(C(=O)Nc2ccc(C)c(F)c2)C(C)C)CC1	102	-15	100	111
Cc1ccc(Nc2ccc3cc(S(=O)(=O)N4CCC(C)CC4)ccc3n2)c(Cl)c1	110	x	100	87
O=C(NCc1ccccc1)c1noc2c1CCc1ccccc1-2	101	x	106	93
CCN1C(=O)/C(=C(/C#N)C(=O)C(C)(C)C)c2ccccc21	x	5	98	94
CN(Cc1ccccc1)C(=O)COc1ccc(-n2ccnc2)cc1	x	-24	75	88
COc1ccc(OC)c(C2CCN(c3ccc(-c4nc(-c5ccc(F)cc5)no4)nn3)C2)c1 (stereo not given)	99	-35	x	x
CC1CCC2(CC1)NC(=O)N(NC(=O)COC(=O)CCc1ccccc1)C2=O (stereo not given)	x	-7	98	93
CC(=O)Nc1ccc(S(=O)(=O)Nc2ccc3c(c2)N(C(=O)c2ccccc2)CCC3)cc1	108	-2	x	x

(next part)
SMILES | GIV-Gai inh | HCMV NEC inh | Sa growth inh | Sa growth inh second temp
COc1cc(OC)cc(C(=O)Nc2ccc(S(=O)(=O)Nc3onc(C)c3C)cc2)c1 | 109 | -8 | 102 | 89
Cn1c(N)c(C(=O)c2cccc(S(=O)(=O)N3CCc4ccccc43)c2)c(=O)[nH]c1=O | x | -22 | 102 | 97
CCOC(=O)C1CCCN(C(=O)C2CCN(S(=O)(=O)c3c(C)noc3/C=C/c3ccc(C)cc3)CC2)C1 (stereo not given) | 97 | x | 122 | 90
COc1cc2ncnc(NC(C)c3ccccc3)c2cc1OC (stereo not given) | 104 | -20 | 90 | 82
COc1ccc(-n2c(=O)c3sc4ccccc4c3n(C)c2=O)cc1 | 101 | -42 | 94 | 83
N=c1n(CCCOc2ccccc2)c2ccccc2n1CC(N)=O | 111 | -8 | 89 | 96
O=C(O)C1C2CCC(O2)C1C(=O)Nc1cnn(Cc2ccccc2)c1 (stereo not given) | 104 | -8 | 91 | 82
C=CCC1CC=CC(C)N1C(=O)OCc1ccccc1 (stereo not given) | x | -22 | 98 | 88
Cc1ccc(N2C(=O)c3n[nH]c(C)c3C2c2ccccc2)cc1 (stereo not given) | 111 | -17 | 96 | 87
O=C(OCC(=O)N1CCCCCC1)c1ccc2[nH]c3c(c2c1)CCCC3 | x | -11 | 107 | 108
CSc1nc2sc3c(c2c(=O)n1-c1ccccc1)CCC(C(C)(C)C)C3 (stereo not given) | 104 | -4 | 106 | 94
Cc1nc2ccn(Cc3ccccc3)c(=O)c2cc1C(=O)N1CCN(c2ccccc2)CC1 | 98 | -22 | 114 | 87
CCOC(=O)c1c(S(=O)(=O)NCC(=O)Nc2cc(C)ccc2C)c(C)n(C)c1C | 105 | x | 99 | 87
CCN1C(=O)c2ccc(C(=O)Nc3cc(OC)c(OC)cc3C(=O)O)cc2C1=O | 99 | -44 | 98 | 89
Cc1ccc(-c2cn3c4c(sc3n2)CCCC4)cc1 | 98 | 7 | 101 | 106
CC(C)(C)CNC(=O)c1ccccc1O | 105 | -7 | 92 | 84
O=C1c2ccccc2CN1CCSC(=S)N1CCSCC1 | 102 | x | 103 | 93
COc1ccc(C(=O)N2CCC(C(=O)Nc3ccc(C)cc3)CC2)cc1 | 103 | -31 | 86 | 79
CC(C)Oc1ccc(CNCC2(O)CCOC(C)(C)C2)cc1 (stereo not given) | 101 | -20 | 94 | 92
CN(CC(=O)NCc1ccccc1)S(=O)(=O)c1ccc2c(c1)c(=O)n(C)c(=O)n2C | 100 | x | 91 | 90
Cc1cc(C)nc(-n2nc(C)c3c2N(Cc2ccccc2)C(=O)CC3c2ccc(Cl)cc2)n1 (stereo not given) | 97 | -16 | 104 | 91
COc1ccc(-c2csc3ncnc(Cl)c23)cc1 | 119 | -2 | 122 | 91
COC(CN(C)C(=O)c1ccc2c(c1)N(Cc1ccc(Cl)cc1)C(=O)c1ccccc1S2=O)OC (stereo not given) | 107 | 0 | 97 | 89
CCc1ccccc1NC1c2ccccc2C(=O)N1Cc1ccco1 (stereo not given) | 104 | -31 | 100 | 90
COc1cc(NC(=O)C2CCCN(c3nc4cccnc4s3)C2)cc(OC)c1 (stereo not given) | 100 | -32 | x | x
(list continues)
SMILES | GIV-Gai inh | HCMV NEC inh | Sa growth inh | Sa growth inh second temp
O=C(NCc1ccc2c(c1)OCO2)C1CC(=O)N(C2CCCCCCC2)C1 (stereo not given) | 102 | 3 | 109 | 87
COc1ccc(C)cc1NC(=O)COC(=O)c1c(C)noc1C | x | -14 | 74 | 95
O=C(Nc1cccc(NC(=O)c2c(F)cccc2F)n1)c1c(F)cccc1F | 100 | -11 | 118 | 76
Cc1ccc(OCC(=O)Nc2ccccc2C(N)=O)cc1 | x | -6 | 107 | 89
Cn1c(=O)cc(SCC(=O)N2CCN(c3ccccc3)CC2)c2ccccc21 | 102 | -17 | 109 | 90
Cc1ccc(NC(=O)Cn2c(=O)c(C)nc3ccccc32)cc1 | x | -23 | 73 | 89
Clc1ccc(-c2csnn2)cc1 | 104 | 6 | x | x
N#CCC(=O)N1CCNCC1 | x | -5 | 79 | 94
CC(C)c1ccc(Nc2c(-c3ccsc3)nc3ccc(Cl)cn23)cc1 | 100 | -2 | 88 | 90
Cc1cc(C)cc(NC(=O)c2ccc3c(c2)nnn3C2CCCC2)c1 | 102 | x | 100 | 98
C=CCN(CC(=O)Nc1ccc(C)cc1)c1ccccc1 | x | -19 | 98 | 98
Cc1cc(=O)c2c(o1)CC(C)(C)CC2=O | 101 | -7 | 128 | 112
Cc1ccc2oc(Nc3nc(-c4ccccc4)cc(=O)[nH]3)nc2c1 | 103 | -11 | 123 | 46
CC(=O)N1CCC(NC(=O)Oc2ccc(Cl)cc2)CC1 | 103 | -9 | 92 | 93
CCN(C(=O)NC1(C(F)(F)F)Oc2ccc(Cl)cc2O1)C1CCCCC1 (stereo not given) | 104 | -15 | 88 | 84
O=C(Nc1ccccc1Cl)c1nc2c(nnn2Cc2ccc3c(c2)OCO3)c(=O)[nH]1 | 103 | x | 97 | 83
CCCc1noc(-c2cc(S(=O)(=O)N3CCOCC3)ccc2OC)n1 | 108 | 10 | x | x
COc1ccc(NC(C)=O)c(-c2nc3cc4ccccc4cc3n(Cc3ccccc3)c2=O)c1 | 102 | 1 | x | x
Cn1/c(=N\N=C2CCCCC2)sc2ccccc21 | 113 | -21 | 100 | 82
COc1cccc(C(C(=O)NCc2ccco2)N(C(=O)Cn2nnc3ccccc32)C2CC2)c1OC (stereo not given) | 105 | 20 | 80 | 113
Cc1cc2c(cc3n2CC(C)(C(=O)NC2CCCCC2)N(Cc2ccc4c(c2)OCO4)C3=O)o1 (stereo not given) | 98 | -19 | x | x
Cc1cccc(-n2cc[nH]c(=O)c2=O)c1C | 99 | -37 | x | x
COc1ccc(CNC(=O)c2cc3c(=O)oc4ccc(C)cc4c3s2)c(OC)c1 | 100 | -38 | 109 | 86
COc1ccc(N(C(=O)c2ccc(C(C)(C)C)cc2)S(=O)(=O)c2ccc(Cl)cc2)cc1 | 104 | -44 | 105 | 80
Cc1cc(C(=O)CSC(=S)N(C)C)c(C)n1-c1nccs1 | x | -23 | 80 | 89

As a short view, 4 of the compounds above.
SMILES | GIV-Gai inh | HCMV NEC inh | Sa growth inh | Sa growth inh second temp
CC(C)c1ccc(Nc2c(-c3ccsc3)nc3ccc(Cl)cn23)cc1 | 100 | -2 | 88 | 90
Cc1cc(C)cc(NC(=O)c2ccc3c(c2)nnn3C2CCCC2)c1 | 102 | x | 100 | 98
C=CCN(CC(=O)Nc1ccc(C)cc1)c1ccccc1 | x | -19 | 98 | 98
Cc1cc(=O)c2c(o1)CC(C)(C)CC2=O | 101 | -7 | 128 | 112

(more compounds)
SMILES | GIV-Gai inh | HCMV NEC inh | Sa growth inh | Sa growth inh second temp
Cc1ccc(C(=O)c2cn(Cc3ccccc3C)c3nc(C)ccc3c2=O)cc1 | 114 | 1 | 104 | 99
CNC(=O)CCc1nc2sc3c(c2c(=O)[nH]1)CCC(C)C3 (stereo not given) | 103 | 3 | x | x
CCC(=O)N(c1nnc(-c2cc(OC)c(OC)c(OC)c2)s1)C1CCCC1 | 100 | -11 | 102 | 78
Cc1ccc2c(=O)cc(CSc3nnc(-c4ccccc4)n3C)[nH]c2c1C | 105 | x | 91 | 87
CCOC(=O)N1CCN=C1SCc1ccc(C(F)(F)F)cc1 | 96 | -30 | 76 | 87
CC(=O)N1CCC(=NNc2nc3ccccc3s2)CC1 | x | -12 | 112 | 96
CCOc1ccccc1NC(=O)C1CCCN1S(=O)(=O)c1ccc2c(c1)C(C)(C)C(=O)N2C (stereo not given) | 104&103 | -4 | 90 | 76
CC(C)CCNC(=O)C1CCCN(S(=O)(=O)N2CCCC(C(=O)NCCC(C)C)C2)C1 (stereo not given) | 104 | -19 | x | x
Cc1ccc(-c2nn3c(C)nnc3s2)cc1 | 108 | -13 | x | x
